High-throughput results (PubChem)
HPGD inh: blocks human HPGD enzyme activity; P15428; purified HPGD, NADH fluorescence kinetic, PGE2 substrate; Potency, µM, without a hit: top-dose activity change, negative = inhibition, usual class: inhibitors; actives 4.3% (n = 150,000); active = well fitted inhibition curve with a large enough effect (not every such curve was filed as active); inconclusive = small, poorly fitted or top-dose-only effect, or another doubt; inactive = no such curve, though single readings can be large or run the other way;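 also: top concentration of the series not given in the record; plate controls included wells without enzyme; inactives centre near -10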
Target sequence (P15428 whole entry, looked up): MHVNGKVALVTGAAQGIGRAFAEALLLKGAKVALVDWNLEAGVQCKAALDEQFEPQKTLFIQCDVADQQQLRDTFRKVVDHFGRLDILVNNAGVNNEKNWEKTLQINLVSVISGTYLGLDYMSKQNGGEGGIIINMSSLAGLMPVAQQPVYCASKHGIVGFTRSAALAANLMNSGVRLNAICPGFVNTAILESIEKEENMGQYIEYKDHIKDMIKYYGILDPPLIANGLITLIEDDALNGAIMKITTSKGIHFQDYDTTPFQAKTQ
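NADH formation kinetics: reaction with 30 uM PGE2 and 1 mM NAD+ (final), 20 nM enzyme, Tris-HCl pH 8 with Tween 20, after 15 min compound preincubation at room temperature. Fluorescence change, last versus first of five reads.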
Numbers without * were called inactive; u = inconclusive. % is scaled to controls: 0 for no effect and ±100 for the full control effect; potency is read from the fitted curve at half-maximal effect. This is a subset; the hit share may differ from the screen's.

| mol | HPGD inh |
| --- | --- |
| CC(C)(C)C1CCC2(CC1)CCN(CCCN1CCOCC1)CC2 | 1% |
| O=S1(=O)CC(O)C(Nc2ccccc2Cl)C1 (stereo unspecified) | -10% |
| CCCc1cc(C(=O)Nc2c(C)n(C)n(-c3ccccc3)c2=O)no1 | -11% |
| O=C(Nc1ccccc1)N(Cc1cccnc1)Cc1ccco1 | -9% |
| Cc1ccccc1-c1nnn(CC(=O)NCc2ccc3c(c2)OCO3)n1 | -6% |
| CCOC(=O)c1ccc(CNC(=O)CSc2nnc(-c3ccncc3)o2)cc1 | -12% |
| Cc1cc(-n2c(C)cc(C(=O)CSc3ccc4c(c3)OCCO4)c2C)no1 | -21% |
| O=C1Cc2cccc3cccc1c23 | u |
| S=C(NCc1ccccn1)Nc1cccc(Cl)c1 | -25% |
| NC[C@@H]1O[C@@H](O[C@H]2[C@H](O)[C@H](O[C@@H]3O[C@H](CO)[C@@H](O)[C@H](N)[C@@H]3O)[C@@H](N)C[C@H]2N)[C@H](N)C[C@@H]1O | 1% |
| CNC(=O)CSCCn1c(SCC(=O)NC)nc2ccccc2c1=O | -11% |
| COc1ccc(N2CCN(C(=O)CSc3nnc4c(C)cc5ccc(C)c(C)c5n34)CC2)cc1 | -8% |
| CC(c1ccccc1)C1CC(=O)N(Cc2ccco2)C1=O (stereo unspecified) | -13% |
| CCCC1=NN(c2ccc([N+](=O)[O-])cc2)C(=O)/C1=C/N(C)C | -22% |
| Cc1cccc(N2CCN(C(=O)c3ccc(Cl)c(S(=O)(=O)N4CCc5ccccc5C4)c3)CC2)c1C | -20% |
| CC(C)OCCCNC(=O)c1ccc(Br)cc1 | -16% |
| Cc1ccc(-c2nnc(SCC(=O)NNC(=O)COc3ccccc3C)n2C)cc1 | 0% |
| CCOC(=O)c1c(C)[nH]c(C(=O)OCC(=O)Nc2ccc(OCC)cc2)c1C | -21% |
| CC(C)c1ccc(/C=C/C(=O)Nc2nncs2)cc1 | -15% |
| O=[N+]([O-])c1ccc(N2CCN(S(=O)(=O)c3ccccc3[N+](=O)[O-])CC2)cc1N1CCc2ccccc2C1 | -6% |
| Cc1ccc(-n2c(O)c(C=NC3CCS(=O)(=O)C3)c3ccccc3c2=O)cc1C (stereo unspecified) | -19% |
| COc1ccc(NCc2ccc(OC)c(OC)c2)cc1 | -12% |
| CCN1CCc2c(sc(NC(=O)Nc3ccc(Cl)c(Cl)c3)c2C(N)=O)C1 | -17% |
| Cc1oc(C)c2c(=O)ccc3c(c12)OC(N)=C(C#N)C3c1ccccc1 (stereo unspecified) | -11% |
| CCOc1ccccc1C(=O)NCC(=O)OCC(=O)NCCc1ccc(S(N)(=O)=O)cc1 | -17% |
| Cc1ccc(C)c(NS(=O)(=O)c2cc(C(=O)NCCC3=CCCCC3)ccc2C)c1 | -5% |
| O=C(c1ccc([N+](=O)[O-])cc1)N1CCN(Cc2ccccc2)CC1 | -18% |
| CCOC(=O)C1CCN(Cc2ccc(OC)cc2OC)CC1 | -6% |
| CC(=O)c1sc(Nc2ccccn2)nc1C | -17% |
| COc1ccc(CNC(=O)CSCc2ccccc2Cl)cc1 | -29% |

More structures
| mol | HPGD inh |
| --- | --- |
| O=C1CC(c2ccc(O)c(O)c2)Oc2cc(O)cc(O)c21 (stereo unspecified) | u |
| Cc1cc(C)n(-c2ncc(-c3ccccc3)nn2)n1 | -18% |
| O=S(=O)(c1ccc2nc(Cc3ccccc3)[nH]c2c1)N1CCOCC1 | -10% |
| COc1ccccc1N=CC1=C(O)CC(c2ccccc2)CC1=O (stereo unspecified) | -12% |
| COc1cc(C=Nc2c(C)cc(C)cc2C)ccc1OC(C)=O | -11% |
| CC1=CC(C)(C)N(C(=O)CSc2nnc(N)s2)c2cc(C)c(C)cc21 | -7% |
| COCCNCCCCOc1ccccc1-c1ccccc1 | -2% |
| COCCN(C(=O)CN1CCCc2ccccc21)c1c(N)n(Cc2ccccc2)c(=O)[nH]c1=O | -4% |
| O=C(c1ccc(S(=O)(=O)c2ccccc2)cc1)N1CCCCCC1 | 18µM* |
| CCNS(=O)(=O)c1cc(OC)ccc1OC | -1% |
| Cc1ccc(S(=O)(=O)c2nc(-c3ccccc3)oc2NCCN2CCOCC2)cc1 | -5% |
| CCOC(=O)C1=C(O)c2ccccc2C(=O)/C1=C\c1ccc(C)cc1 | 14µM* |
| CCOc1ccccc1/C=N/NC(=O)c1ccc(Cn2cc([N+](=O)[O-])cn2)o1 | -20% |
| O=C(Nc1cc(C(F)(F)F)ccc1N1CCOCC1)c1ccccc1 | -6% |
| O=C(CSc1ncccn1)N/N=C/c1cccs1 | -1% |
| CCOc1ccc(C2c3c(oc4cc(C)c(C)cc4c3=O)C(=O)N2CCCN(C)C)cc1OC (stereo unspecified) | -19% |
| Cc1cc(C)n(-c2ccc(C(=O)NCc3cccs3)cc2)n1 | u |
| O=C(/C=C/c1ccccc1)C1C(=O)c2ccccc2C1=O | -13% |
| COc1ccc(C2C(C(=O)O)c3ccccc3C(=O)N2C)cc1Br (stereo unspecified) | 2% |
| COc1ccc(-n2c(N)c(C(=O)NCC3CCCO3)sc2=S)cc1 (stereo unspecified) | 16µM* |
| C/C(Cl)=C\Cn1c(NCCc2ccccc2)nc2c1c(=O)n(C)c(=O)n2C | -8% |
| CC(C)(C)c1ccc(OCC(=O)Nc2ccc(-c3nc4cccnc4o3)cc2)cc1 | u |
| c1ccc2sc(Nc3nc4cc5c(cc4s3)OCO5)nc2c1 | u |
| COc1ccccc1NC(=O)Cn1nnc(-c2ccccc2NC(=O)c2cc3ccccc3oc2=O)n1 | -15% |
| CC(=O)SC(C)CC(=O)NCc1ccccc1 (stereo unspecified) | 28µM* |
| CCN(CCO)c1nc(SC)nc2c1sc1nc(-c3ccco3)c3c(c12)CCC3 | u |
| CCCCCn1c(N2CCOCC2)nc2c1c(=O)n(CC(N)=O)c(=O)n2C | -10% |
| CC(C)CCNC(=S)Nc1ccc(Br)cc1 | -26% |
| Cc1cc(C)n2nc(-c3ccsc3-n3c(C)ccc3C)cc2n1 | -10% |
| Cc1cc(C)c2c(c1)/C(=N/NS(=O)(=O)c1ccccc1)CCC2 | -3% |

Structures listed so far that contain an NH in an aromatic ring (three):
| mol | HPGD inh |
| --- | --- |
| CCOC(=O)c1c(C)[nH]c(C(=O)OCC(=O)Nc2ccc(OCC)cc2)c1C | -21% |
| O=S(=O)(c1ccc2nc(Cc3ccccc3)[nH]c2c1)N1CCOCC1 | -10% |
| COCCN(C(=O)CN1CCCc2ccccc21)c1c(N)n(Cc2ccccc2)c(=O)[nH]c1=O | -4% |

(more compounds)
| mol | HPGD inh |
| --- | --- |
| CCc1ccc(C2=Nn3c(nnc3-c3cccs3)SC2)cc1 | -25% |
| O=C(NC1CCCC1)C(c1ccccc1F)N(C(=O)Cc1cccs1)c1ccc2c(c1)OCCO2 (stereo unspecified) | -12% |
| CC(C)(C)n1nnnc1C(c1ccc(C#N)cc1)N1CCCC2(CCCCC2)C1 (stereo unspecified) | -6% |
| CC(C)OC(=O)CSc1nnc(SCc2cccc3ccccc23)s1 | -14% |
| COc1cc2c(cc1OC)-c1cc(NCc3ccccn3)nc(=O)n1CC2 | u |
| CCOC(=O)Nc1sc(C)c(C)c1C(N)=O | -4% |
| Cc1cc(S(=O)(=O)NC(C)C)ccc1OCC(=O)N1CCOCC1 | -8% |
| CCOc1ccccc1-c1nc(-c2cc3ccccc3nc2OC)no1 | u |
| O=C(COC(=O)c1ccccc1C(=O)c1ccccc1)NCCc1ccc(Cl)cc1Cl | -9% |
| CC1CCCCN1c1nnc(NC(=O)Cn2c(=O)oc3ccccc32)s1 (stereo unspecified) | -12% |
| N#Cc1ccc(-c2nc3ccccc3nc2-c2ccccc2)cc1C#N | -28% |
| Cc1cc(Cl)c(S(=O)(=O)Nc2ccc3c(c2)OCCO3)cc1OCC(=O)NC1CCCCC1 | -11% |
| O=C(CCN1C(=O)c2ccccc2S1(=O)=O)Nc1ccccc1O | -13% |
| Cc1cnc(C(=O)Nc2cccc(-c3nnc4n3CCCCC4)c2)cn1 | 13µM* |
| Cc1onc(-c2ccccc2)c1C(=O)NC(=S)NNC(=O)c1ccncc1 | -21% |
| Cc1ccc(/C(N)=N/OC(=O)COc2ccccc2Cl)cc1 | -9% |
| CN(C(=O)CSC1=Nc2ccccc2C2=NC(c3ccccc3)C(=O)N12)C1CCCCC1 (stereo unspecified) | u |
| CC(=O)Nc1ccc(/C(C)=N/NS(=O)(=O)c2ccccc2)cc1 | 1% |
| CC(Sc1nc(N)c2c3c(sc2n1)CSC(C)(C)C3)C(=O)Nc1ccccc1 (stereo unspecified) | -16% |
| O=C1CC(N2CCCc3ccccc32)C(=O)N1c1ccccc1Cl (stereo unspecified) | -15% |
| COc1cc(/C=N/Nc2nc3ccccc3s2)ccc1OC(=O)c1ccccc1F | -28% |
| CC(C)CNC(=O)c1ccc(NC(=O)c2cccs2)cc1 | 18µM* |
| CC(C)C(CC(=O)N1CCCCC1)C1CCOC(C)(C)C1 (stereo unspecified) | -28% |
| O=C(NCCN1CCOCC1)c1cc(S(=O)(=O)NCCCN2CCCC2=O)ccc1Cl | -8% |
| CCCc1cc(C(=O)Nc2sc(C)c(C)c2C(=O)OCC)no1 | u |
| CCn1cc(C(=O)Nc2cccc(C(=O)OC)c2)c(=O)c2ccc(C)nc21 | -2% |
| COc1ccc(NC(=O)CN2CC(c3ccccc3)CC2=O)cc1OC (stereo unspecified) | -3% |
| OC1CCCCC1 | -4% |
| Cc1ccccc1C1CC(c2ccccc2)Nc2ncnn21 (stereo unspecified) | -10% |
| COc1ccc(NC(=S)NNC(=O)C2CC2c2ccc(C)cc2)cc1 (stereo unspecified) | -25% |

The last five compounds of the section above lead into the next.
| mol | HPGD inh |
| --- | --- |
| CCn1cc(C(=O)Nc2cccc(C(=O)OC)c2)c(=O)c2ccc(C)nc21 | -2% |
| COc1ccc(NC(=O)CN2CC(c3ccccc3)CC2=O)cc1OC (stereo unspecified) | -3% |
| OC1CCCCC1 | -4% |
| Cc1ccccc1C1CC(c2ccccc2)Nc2ncnn21 (stereo unspecified) | -10% |
| COc1ccc(NC(=S)NNC(=O)C2CC2c2ccc(C)cc2)cc1 (stereo unspecified) | -25% |
| Cc1ccc(S(=O)(=O)N2CCCCC2)cc1NC(=O)COC(=O)Cc1cccc(C(F)(F)F)c1 | -17% |
| Cn1c(NC(=O)c2ccccc2)c(-c2ccccn2)c(=O)c2ccccc21 | -13% |
| C=CCn1c(Sc2nncn2C)nc2c1c(=O)[nH]c(=O)n2C | -7% |
| COc1ccccc1N1CCN(CCCNc2c(C)c(=O)n(C)c(=O)n2C)CC1 | -12% |
| Cc1nn(Cc2ccc(Cl)cc2Cl)c(Cl)c1/C=N/NC(=O)CNc1cccc(C(F)(F)F)c1 | -10% |
| CC1(C)CC(=O)/C(=C(\O)c2ccccc2)C(=NCCc2ccccc2)C1 | -14% |
| C=CCNC(=O)/C=C/c1ccc(C(C)C)cc1 | -10% |
| COc1ccc(NC(=O)CSc2c(C)nn(-c3nnc(C)c(=O)[nH]3)c2C)cc1 | -7% |
| CCOC(=O)CC1C(=O)NCCN1C(=O)c1cc2c(=O)n3cccc(C)c3nc2s1 (stereo unspecified) | u |
| COc1cc(C)nc(N2CCCC(C(=O)Nc3cc(Cl)ccc3OC)C2)n1 (stereo unspecified) | -13% |
| COc1ccc(NC(=O)/C=C/c2ccccc2[N+](=O)[O-])c(OC)c1 | -17% |
| Cc1cc(C(C)(C)C)ccc1OCCOCCN1CCCC1 | 1% |
| Nc1nnc(CCOc2ccccc2Cl)s1 | -11% |
| COc1cnn(-c2ccccc2)c(=O)c1SCc1ccc(Cl)cc1Cl | -11% |
| COc1cccc(N2CCN(C(c3ccccn3)c3nnnn3C(C)(C)C)CC2)c1 (stereo unspecified) | -8% |
| COc1ccc(Cl)cc1NC(=O)CN1CCC(n2nnc3ccccc32)CC1 | 0% |
| COc1cccc(-c2cn3nc(C)c(C)nc3n2)c1 | u |
| CCN(c1ccccc1)S(=O)(=O)c1ccc(F)cc1C | -4% |
| O=C(N/C(=C/c1ccco1)C(=O)N1CCCCCC1)c1cccs1 | 0% |
| CCN(CC)C(=O)c1cccc(-c2ccc(OC)cc2)c1 | 14µM* |
| CCOc1ccc(C(=O)C(c2ccccc2)N2CCOCC2)cc1 (stereo unspecified) | -9% |
| O=C(NC1CCS(=O)(=O)C1)c1cccc(S(=O)(=O)N2CCOCC2)c1 (stereo unspecified) | 3% |
| CC(=O)Nc1ccc(C)cc1 | -6% |
| CC(C)c1ccccc1NC(=O)COC(=O)c1ccc(Cl)c(S(=O)(=O)N2CCCCCC2)c1 | -12% |
| COc1ccc2c(c1)c(C(=O)N/N=C/c1cccc(O)c1)c(C)n2C | -6% |
| CCCC[C@@H]1C[C@H]1C(NC(=O)c1ccc(C(F)(F)F)cc1)c1ccc(C(=O)OC)cc1 (stereo partly specified) | -3% |
| CCc1ccccc1NC(=O)CN(C)C(=O)CSc1nc2cc(Cl)ccc2s1 | -11% |
| COC(=O)C(CC(C)C)NC(=O)CNC(=O)c1ccccc1C (stereo unspecified) | -6% |
| Nc1ccc(Oc2ccc3nc(-c4ccccc4)c(-c4ccc([N+](=O)[O-])cc4)nc3c2)cc1 | -5% |
| CN(C)S(=O)(=O)c1ccc(S(=O)(=O)NC2CCOC(C)(C)C2)cc1 (stereo unspecified) | -17% |

New compounds follow
| mol | HPGD inh |
| --- | --- |
| Cc1ccccc1CN1C2=NCCCN2c2ccccc21 | -12% |
| Cc1nc2nc(-c3ccco3)nn2c(C)c1Cl | u |
| CC(C)=C(C#N)c1nc2ccccc2s1 | -16% |
| C=CCNc1nc(NCc2ccccc2)c(C#N)c2c1CN(C)CC2 | -30% |
| c1ccc(-c2oc3ncnc(NCCN4CCOCC4)c3c2-c2ccccc2)cc1 | u |
| COc1ccccc1-n1nnnc1SCC(=O)NC1CCCC1 | -19% |
| COc1cc(NC(=O)N2CCOCC2)cc(OC)c1 | -4% |
